N370S GC = qHTS Assay for Inhibitors and Activators of N370S glucocerebrosidase as a Potential Chaperone Treatment of Gaucher Disease | Potency, µM (top dose mostly 59.4 µM), inactives show at the highest dose activity change, negative = inhibition, usual class: inhibitors | Lysosomal acid glucosylceramidase (Homo sapiens), P04062 | N370S GC spleen homogenate, 4MU-glucoside fluorescence | 330,000 compounds, 0.092% hits;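 note: 0% = full enzyme activity and -100% = no enzyme basal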
DT40 TDP1 CPT = qHTS for Inhibitors of human tyrosyl-DNA phosphodiesterase 1 (TDP1): qHTS in cells in presence of CPT. chicken DT40 Tdp1-/-;hTDP1 cells + 20 nM CPT, ATP luminescence, 48 h. Potency, µM (titrated, usually from 46.2 µM), inactives show top-dose activity change, negative = growth inhibition, actives largely listed as inhibitors. 420,000 compounds, 12% hits. AID 686979, 2013; note: nearly all actives have a fitted effect of over 55% in size
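Chicken DT40 Tdp1-/- cells complemented with human TDP1, 400 cells/well, exposed to compounds plus 20 nM camptothecin for at least 48 h at 37 C; viability read as ATP content by CellTiter-Glo luminescence.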
* marks the source's active call; other numbers are inactive results; ? = inconclusive; . = no result given; & = joins results of further samples; [ ] = remark or other dose. Calls come from the whole dose curve; as a rule, active = well fitted curve in the direction sought with a large enough effect; inconclusive = small, poorly fitted or top-dose-only effect, or another doubt; inactive = no such curve, though single readings can be large; an effect the other way counts as inactive or inconclusive. Unless noted, % is set by controls: 0 for no effect and ±100 for the full control effect; potency is the fitted concentration of half-maximal effect. A portion of the library; most or all hits stand in other tables.

SMILES	N370S GC	DT40 TDP1 CPT
CCOC(=O)N1CCC(NC(=O)C2CCC(CNS(=O)(=O)c3ccc(OC)cc3)CC2)CC1 (stereo not given)	2%	?
COc1ccc(C(=O)/C=C2/C(=O)Nc3ccccc32)cc1	-5%	9.2µM*
Cc1ccc2c(c1)N(CC(=O)N1CCCCC1C)C(=O)CO2 (stereo not given)	1%	31%[activator]
Cc1cc(C(=O)NNC(=O)CCC2CCCCC2)c(C)o1	2%	2%
COc1ccccc1NC(=O)COC(=O)COc1cccc2c1OC(C)(C)C2	2%	-11%
COC(=O)CSc1ccc(S(=O)(=O)N2CCCCCC2)cc1[N+](=O)[O-]	8%	0%
Cn1c(=O)oc2cc(S(=O)(=O)Nc3ccccc3)ccc21	4%	?
CN1CCN(NC(=O)c2cc([N+](=O)[O-])cc([N+](=O)[O-])c2)CC1	-4%	-24%
CC(C)(C)N(Cc1ccccc1)C(=O)COC(=O)C1=NN(c2ccccc2)C(=O)CC1	2%	9%
Cc1cccc(NC(=O)c2cc3cc([N+](=O)[O-])ccc3s2)n1	-2%	4%
CC(C)[C@H](NC(=O)[C@@H]1Cc2ccccc2CN1)C(=O)Nc1ccc2c(c1)OCO2	0%	-6%
Cc1cc(C)n(-c2ccc(Cl)c(C(=O)NCc3ccccc3)n2)n1	-13%	8%
O=C(c1ccccc1)c1ccncc1	17%	-4%
Cc1cc(=O)oc2c(C)c(OCC(=O)NCCCN3CCOCC3)ccc12	-3%	5%
COCc1c(C(=O)N2CCN(Cc3ccc(C#N)cc3)CC2)oc2ccccc12	-6%	-30%
CCOC(=O)NC(Cc1c[nH]c2ccccc12)C(=O)NCCc1ccc(S(N)(=O)=O)cc1 (stereo not given)	-14%	5%
COc1ccc(OC)c(NC(=O)Cn2cc(C=O)c3ccccc32)c1	3%	?
Cc1ccc(S(=O)(=O)Oc2ccc(/C=C(/NC(=O)c3ccccc3)C(=O)NCCCC(=O)O)cc2)cc1	5%	31%[activator]
O=C(CSc1ccc2nnc(-c3ccccn3)n2n1)N1CCN(c2ccccc2)CC1	-12%	-20%
O=C(CCN1CCCCO1)N1CCCC(Nc2cccc(F)c2)C1 (stereo not given)	2%	-4%

3 compounds from above, sorted by molecular weight, rising.
SMILES	N370S GC	DT40 TDP1 CPT
Cc1cc(C(=O)NNC(=O)CCC2CCCCC2)c(C)o1	2%	2%
COC(=O)CSc1ccc(S(=O)(=O)N2CCCCCC2)cc1[N+](=O)[O-]	8%	0%
COCc1c(C(=O)N2CCN(Cc3ccc(C#N)cc3)CC2)oc2ccccc12	-6%	-30%

Additional records
SMILES	N370S GC	DT40 TDP1 CPT
COc1ccc(NS(=O)(=O)c2cc(NC(=O)c3cccc(OCc4c(C)noc4C)c3)ccc2OC)cc1	-3%	?
COc1ccc(NC(=O)c2ccc(NC(=O)COC(=O)CC(NC(=O)c3ccccc3Cl)c3ccccc3)cc2)cc1 (stereo not given)	-10%	?
Cn1nccc1NC(=O)Nc1ccccc1	-11%	2%
O=C(NCC1CCCO1)c1ccccc1OCc1ccc(Cl)cc1 (stereo not given)	14%	?
Clc1nc(NC2CCCC2)nc(N2CCOCC2)n1	1%	0%
COC(=O)c1ccc(C(=O)OC)c(NC(=O)CS(=O)(=O)Cc2ccccc2)c1	3%	-17%
COc1ccccc1NC(=O)c1cc(-c2ccc(C)o2)nc2ccccc12	-2%	?
CCC(=O)Oc1ccc(C(=O)Nc2c[nH]c(=O)[nH]c2=O)cc1	-10%	-6%
Cc1ccc(S(=O)(=O)NCc2ccccc2)cc1C(=O)N(C)CC(=O)Nc1c(Cl)cccc1Cl	-6%	23µM*
COc1ccc2[nH]c(=O)c(CN(C)C(=O)C3CCCCC3)cc2c1	10%	?
CC(C)c1ccc(N(C(=O)c2ccco2)C(C(=O)NC2CCCC2)c2cccnc2)cc1 (stereo not given)	-2%	?
CCn1c(-c2cccnc2Cl)nc2cc(C)c(C)cc21	4%	-14%
COCCN(C(=O)Nc1ccc(F)cc1F)c1nc2ccccc2s1	-4%	4%
Oc1ccccc1C=NC(c1ccccc1)C(O)c1ccccc1 (stereo not given)	0%	?
Cc1ccc(S(=O)(=O)NCCC(=O)N2CCN(c3cccc(Cl)c3)CC2)cc1C	0%	15µM*
CN(Cc1nc(-c2ccccc2)no1)C(=O)c1ccc2c(c1)OCO2	-3%	0%
COCCN1C(=O)c2[nH]nc(-c3ccccc3O)c2C1c1ccc(OC)cc1 (stereo not given)	13%	-4%
CC(O)CNC(=O)Cc1cc(=O)[nH]c(=O)[nH]1 (stereo not given)	-2%	-1%
N#Cc1ccc(N2CCN(C(=O)c3cccc(F)c3)CC2)c(F)c1	2%	?
CCOc1ccc(C(=O)N2CCN=C2SC)cc1OCC	-12%	1%
COc1cccc(C2c3c(oc4ccccc4c3=O)C(=O)N2CCCN2CCOCC2)c1 (stereo not given)	?	?
CCn1c(SCC(=O)NCc2ccc(C)cc2)nnc1-c1ccncc1	4%	5%
COc1ccccc1CN1CCCC(CNC(=O)c2cccc3ccccc23)C1 (stereo not given)	-4%	-20%
CCN1CCc2c(C#N)c(NCc3ccccc3)nc(N(CC)CC)c2C1	-11%	?
Cc1c(C(=O)N(C)CCn2ccnc2C)oc2c(F)cccc12	-5%	-8%
Cc1cc(=O)oc(C)c1C(=O)NCc1ccco1	6%	-14%
COCCCNC(=O)c1cc(Nc2ccc(OC)cc2OC)nc2ccccc12	9%	?
COC(=O)c1sccc1NC(=S)OC	-19%	18%
COc1ccc(-n2c(C)c(C(C)=O)c3cc(OCC(N)=O)ccc32)cc1	-2%	?
C/C(=N/NC(=O)c1cccs1)c1ccc(NC(=O)COc2ccc(Cl)cc2)cc1	-17%	?
O=c1[nH]c2ccccc2cc1-c1nnn(-c2ccc(F)cc2)n1	21%	?
CCCC(=O)Nc1ccc2c(c1)nc(CCNC(=O)c1ccco1)n2C	8%	-6%
COCc1[nH]nc2c1C(c1ccccc1OC)C(C#N)=C(N)O2 (stereo not given)	1%	-1%
CCC(C)NC(=O)c1cn(-c2cccc(OC)c2)c(=O)c2ccccc12 (stereo not given)	4%	24%
CCOc1ccc2oc(-c3ccccc3)c(C(=O)N(C)C)c2c1	-1%	?
COC(=O)c1cccc(NC(=O)Cn2cnc3ccccc3c2=O)c1	2%	10%
COc1cc(NC(=O)CSc2nnc(C)s2)cc(OC)c1OC	6%	10%
COc1cc(Nc2ncnc(N)n2)cc(OC)c1	-10%	30%[activator]
O=C(CSc1nnnn1-c1ccccc1)N1CCNC1=O	2%	1%
O=C(CSc1nc2ccc(Cl)cc2[nH]1)Nc1ccc2[nH]c(=O)[nH]c2c1	0%	0%

Seven of the compounds above, with two lines to a compound:
Each structure is followed by: N370S GC, DT40 TDP1 CPT
- CCC(C)NC(=O)c1cn(-c2cccc(OC)c2)c(=O)c2ccccc12 (stereo not given)
  4%, 24%
- CCOc1ccc2oc(-c3ccccc3)c(C(=O)N(C)C)c2c1
  -1%, ?
- COC(=O)c1cccc(NC(=O)Cn2cnc3ccccc3c2=O)c1
  2%, 10%
- COc1cc(NC(=O)CSc2nnc(C)s2)cc(OC)c1OC
  6%, 10%
- COc1cc(Nc2ncnc(N)n2)cc(OC)c1
  -10%, 30%[activator]
- O=C(CSc1nnnn1-c1ccccc1)N1CCNC1=O
  2%, 1%
- O=C(CSc1nc2ccc(Cl)cc2[nH]1)Nc1ccc2[nH]c(=O)[nH]c2c1
  0%, 0%

(more compounds)
SMILES	N370S GC	DT40 TDP1 CPT
Cc1ccc(S(=O)(=O)NC(=O)c2cc(C)n(CCCN3CCOCC3)c2C)cc1	-1%	5%
O=C(Nc1ccccc1)N1CCN(c2ccccc2)CC1	.	-22%
Cc1ccc(NC(=O)CSc2ccc(S(=O)(=O)N3CCCC3)cn2)cc1F	.	-16%
COC(=O)c1cccc(NC(=O)c2ccc3c(c2)C(=O)N(C(C)(C)C)C3=O)c1	3%	-5%
O=C(OCC(=O)N1CCN(c2ccccc2)CC1)c1ccc(Cl)nc1	-2%	0%
O=C(CCc1ccc(O)cc1)NNC(=S)NCCc1ccccc1	-5%	-11%
CN1CCN(C(=O)c2ccccc2[N+](=O)[O-])CC1	2%	22%
CCN(Cc1ccccc1)c1ccc(/C=N/N=C(N)N)cc1	?	10µM*
Fc1ccc(CSc2nnc(-c3ccncc3)o2)cc1	-1%	-16%
COC(=O)C1CN(C(=O)COc2ccccc2)c2ccccc2O1 (stereo not given)	1%	-3%
COc1ccc(N2CCN(Cc3nc4c(c(=O)n(C)c(=O)n4C)n3CCc3ccccc3)CC2)cc1	10%	?
CC(=O)c1c(C)[nH]c(C(=O)OCc2cccc(Cl)c2)c1C	10%	?
Cc1cc(C(C)(C)C)oc1C(=O)Nc1ccc(CC(=O)O)cc1	15%	1%
Cc1ccc(NC(=O)CSCC(=O)NCc2ccco2)cc1	-6%	4%
Cc1cc(C(F)(F)F)nc2c(Cl)c(C(C)(C)C)nn12	17%	20%
CCCCOc1ccc(CN2CCSCC2)cc1	-2%	?
Cc1nn(C)c(C)c1NS(=O)(=O)c1ccc(N2CCCC2=O)cc1	-3%	18µM*
O=C(CC(c1ccco1)C1CCCCC1=O)c1ccco1 (stereo not given)	1%	9%
CN(C)CCN(Cc1ccco1)S(=O)(=O)c1csc(C(N)=O)c1	-27%	14%
Cc1ccc(NC(=O)Nc2ccc3c(c2)OCO3)c(Br)c1	-9%	0%
Cc1scc(C(=O)N/N=C/c2ccc(OCC(C)C)cc2)c1C	-11%	?
CCOc1ccc(N2C(=O)/C(=C\c3ccc(O)c(OC)c3)S(=O)(=O)C2c2cccc([N+](=O)[O-])c2)cc1 (stereo not given)	-9%	18µM*
CC(=O)c1ccc(Oc2ncnc3sccc23)cc1	-5%	6%
CCOc1ccccc1N(C(=O)c1snc(C(N)=O)c1N)C(C(=O)NC1CCCC1)c1ccco1 (stereo not given)	10%	-1%
O=C(COC(=O)C1CCC1)NCc1ccc(Cl)cc1Cl	-2%	7%
COc1ccc(N(CC(=O)NCCSc2ccccn2)S(=O)(=O)c2ccccc2)c(OC)c1	10%	?
N#Cc1ccc(CSCC(=O)O)cc1	4%[2.35 µM]	-17%
O=C(c1ccc(Br)cc1)N1CCN(c2ncccn2)CC1	.	-2%
CCN(CC)S(=O)(=O)c1ccc(OC)c(NC(=O)CSc2cc(Cl)ccc2Cl)c1	8%	?
CCOc1ccc(S(=O)(=O)NCc2ccc3c(c2)OCO3)cc1NC(C)=O	6%	-2%
Cc1nn(C(=O)c2ccco2)c(C)c1Br	-1%	2%
C=CCc1cc(C)ccc1OCCCC(C(=O)OCC)C(=O)OCC	-9%	-26%
CCc1nn2c(=O)c(S(=O)(=O)Nc3cccc(F)c3)c(C)nc2s1	-19%	-1%&-13%
O=C1CCC[C@@H]2CC(N3CCCCC3)C[C@@H]3CCN1[C@H]23 (stereo not given in full)	-13%[89.1 µM]	0%
O=C1CC2(CCN(S(=O)(=O)c3ccccc3F)CC2)Oc2ccccc21	2%	-10%
O=C(Cc1ccccc1)NCCC1=CCCCC1	4%	2%
CC(=O)N1CCN(c2ccc(NC(=O)c3cccc(Cl)c3)cc2)CC1	-1%	1%
CCN(CC(=O)NCc1cccs1)C(=O)c1ccc(NS(=O)(=O)c2cccc([N+](=O)[O-])c2)cc1	-5%	-4%
C/C(=N\Nc1nc(N2CCCCC2)nc(N2CCOCC2)n1)c1cccs1	5%	6%
CC(=O)Nc1cccc(NC(=O)CSc2nc3c(=O)n(C)c(=O)n(C)c3n2C)c1	0%	-12%
Cc1ccccc1NC(=O)CSc1nnc(NC(=O)C2CC2)s1	1%	-1%
O=C(O)CC(NC(=S)NCc1ccccc1)C(=O)O (stereo not given)	9%	-45%
Cc1cccc(N(C(=O)c2cnc3n(c2=O)CCS3)C2CCCCC2)c1	4%	12µM*
O=S(=O)(c1ccc2nnn(OCc3ccccc3)c2c1)N1CCOCC1	-3%	?
Cc1ccnc2c(N3C(=O)C4C5c6ccccc6C(c6ccccc65)C4C3=O)cccc12 (stereo not given)	-5%	21µM*
CCOC(=O)N1CCN(c2cccc(C)c2C)CC1	3%	10%
CCCCOc1[nH]c2nc(-c3ccco3)n(Cc3ccco3)c(=N)c2c1C#N	4%	?
O=C(NCCS(=O)(=O)NCc1ccc(F)cc1)c1ccc2c(c1)OCO2	1%	-21%
NS(=O)(=O)c1ccc(NC(=O)COC(=O)C2CCCCC2)cc1	-8%	-5%
CCN1CCN(c2oc(COc3ccc(-c4ccccc4)cc3)nc2C#N)CC1	-24%	?

Next entries follow.
SMILES	N370S GC	DT40 TDP1 CPT
OC(CNc1nc(C(F)(F)F)nc2ccccc12)c1ccccc1 (stereo not given)	-4%	?
COc1cc(NC2c3ccccc3C(=O)N2Cc2ccccc2)cc(OC)c1OC (stereo not given)	7%	?
Cc1ccnc(NC(=O)Cn2c(=O)oc3cc(S(=O)(=O)N4CCCC4)ccc32)c1	-14%	-2%
CCCCC(CC)C(=O)Nc1ccc(Cl)cn1 (stereo not given)	0%	-13%
CC(Oc1ccc(Cl)cc1Cl)C(=O)NNC(=O)c1ccncc1 (stereo not given)	-5%	-4%
Cc1ccc(F)c(Oc2cc(NN3CCCCC3)c([N+](=O)[O-])cc2[N+](=O)[O-])c1	-9%	?
